# GIV-Gai inh: inhibitors of GIV peptide binding to Galpha-i3, primary screen, biochemical, fluorescence polarization, FITC-GIV GBA peptide, rat Galphai3 | 90 min; active compounds read low; scaled: aluminum fluoride 0%, vehicle 100% | percent of control (FP), % (test concentration not listed) | hit rate 0.42% among 210,000 | AID 1224905, 2016;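 active = replicate mean at 85% of control or lower, very high polarization wells dropped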;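 also: lower values mean more displacement of the GIV peptide from Galpha-i3; wells of about 15 µL received 100 nL stock; the first replicate is given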
# Target sequence (P08753 whole entry, looked up): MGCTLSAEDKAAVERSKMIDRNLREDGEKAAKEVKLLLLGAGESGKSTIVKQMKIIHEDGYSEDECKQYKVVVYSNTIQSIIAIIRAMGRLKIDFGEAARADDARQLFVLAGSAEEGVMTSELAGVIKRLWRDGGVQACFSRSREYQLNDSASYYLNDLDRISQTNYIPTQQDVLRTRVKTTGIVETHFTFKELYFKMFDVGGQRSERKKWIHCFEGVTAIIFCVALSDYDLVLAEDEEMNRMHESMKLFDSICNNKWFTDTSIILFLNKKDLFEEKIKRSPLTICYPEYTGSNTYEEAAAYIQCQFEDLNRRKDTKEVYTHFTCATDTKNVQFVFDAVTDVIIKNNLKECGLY
# HCMV NEC inh: inhibitors of HCMV UL50-UL53 interaction, biochemical, HTRF; normalized percent inhibition; hit rate 0.15% among 190,000; AID 1918969, 2023; inhibition, % (no concentration beside the values); HCMV UL50-UL53 nuclear egress complex (human cytomegalovirus);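 active = both replicates at 50% or more, plus weaker picks with an unusually low signal ratio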;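 also: stock transfer was 100 nL into about 20 µL; 0% = negative control wells and 100% = wells with untagged competitor protein; inactives centre near -12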
# Sa growth inh: S. aureus growth inhibition at 42 and 30 °C, primary screen, LtaS inhibitor project, RN4220, two temperatures; OD600, 20 h, 42 °C; active compounds read low; relative growth, % (concentration not given with the values); hit rate 0.53% among 170,000; AID 720641, 2013;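 active = growth at 42 °C up to 50% and 20 or more points under that at 30 °C, or under 10% at both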;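 also: 300 nL library stock went into each well; scaled to the means of positive and negative controls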
# Sa growth inh second temp: further read-out of Sa growth inh, marked with its call; relative growth, %; measured here: growth at 30 °C;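 optical density after 20 h as mean of two plates; 100% = untreated growth and lower means inhibition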
# * marks the source's active call; other numbers are inactive results; nt = no result given; & = joins results of further samples.
# Order of values: GIV-Gai inh	Sa growth inh second temp	Sa growth inh	HCMV NEC inh
1) CCOC(=O)C1=C(C)N=c2s/c(=C\c3cccc(Br)c3)c(=O)n2C1c1ccc2c(c1)OCO2 (configuration not stated)
  101.7	nt	nt	-18.8
2) COc1ccc(S(=O)(=O)N(CC(=O)Nc2cccnc2)c2ccc(Cl)cc2)cc1
  101.9	62.5	98.6	-8.1
3) O=C(O)c1oc2ccccc2c1COc1ccccc1
  nt	112.3	122.9	-2.2
4) Cn1c(SCC(=O)NCc2ccccc2)nnc1-c1ccc2ncccc2c1
  101.0	85.0	97.8	-11.7
5) CC1=C/C(=N\Nc2ccc(C(F)(F)F)cn2)CC(C)(C)C1
  nt	88.0	90.1	-8.5
6) NC(=O)C1(N2CCCCC2)CCN(c2c(-c3ccccc3)c3cc(Cl)ccc3[nH]c2=O)CC1
  95.5	nt	nt	-28.7
7) CCN(CC)C(=O)Oc1cc(COC)nc(-c2ccccc2)n1
  98.1	89.3	107.0	-1.5
8) FC(F)Oc1ccc(NC(=S)NNc2ccc(Cl)nn2)cc1
  nt	89.6	102.5	-1.8
9) CC(=O)N[C@H](C(=O)O)C(C)C
  nt	90.6	88.1	-13.7
10) COc1cccc2c1cc1c(=O)n(CC(=O)N3CCN(c4ccccc4F)CC3)nc(C)n12
  99.9	84.9	109.6	-14.0
11) COc1ccc(Cl)cc1N=C1NC(=O)CC(C(=O)Nc2ccccc2C(F)(F)F)S1 (configuration not stated)
  110.0	81.3	78.4	-22.8
12) CCc1ccc(C(C2C(=O)CC(C)(C)CC2=O)C2C(=O)CC(C)(C)CC2=O)s1
  nt	87.0	85.5	-15.1
13) CCOC(=O)c1c(CN2CCN(Cc3ccccc3)CC2)n(C)c2cc(Br)c(OC)cc12
  98.9	nt	nt	-12.2
14) CCC(C(=O)N1CCCC1)n1nc(C)c2sc3ccccc3c2c1=O (configuration not stated)
  101.3	85.6	92.5	nt
15) COc1ccc(-c2nc(C)c(CCNC(=O)c3cc(OC)c(OC)c(OC)c3)s2)cc1OC
  102.0	85.4	99.2	nt
16) COc1cccc(C(=O)N2NC(=O)C=CC2=C(C#N)C#N)c1
  nt	90.8	104.1	-19.5
17) COc1ccc(CNc2nc(-c3ccc(OC)cc3)no2)cc1
  103.1	82.9	84.7	nt
18) Cc1nn(-c2ccccc2)c(-n2cccc2)c1C(=O)NCCc1ccc(Cl)cc1
  106.6	63.4	94.0	12.6
19) N#CCSc1nc(N)cc(N)n1
  103.0	106.6	83.1	-14.4
20) C/C(=N\NC(=O)c1ccccc1NS(=O)(=O)c1cccs1)c1ccco1
  nt	74.3	101.8	-15.9
21) O=C(O)COc1ncnc2ccccc12
  102.5	91.6	81.3	7.3
22) CCSCCOC(=O)C1=C(C)NC2=C(C(=O)CC(c3ccc(OC)cc3)C2)C1c1ccc([N+](=O)[O-])cc1 (configuration not stated)
  100.9	nt	nt	-17.9
23) Cc1cc(C)cc(C(=O)Nc2cc(C)nn2-c2ncnc3c2cnn3-c2ccc(Cl)cc2)c1
  104.2	nt	nt	-23.8
24) O=C1CC(c2nc3ccccc3n2CCCCOc2ccccc2)CN1c1ccccc1Cl (configuration not stated)
  111.8	64.2	106.7	-1.9
25) O=c1nc(SCc2ccc(F)cc2)c2c(n1Cc1ccccc1)CCC2
  101.9	nt	nt	-11.0
26) Cc1ccc(C(=O)Nc2cc3cc(Cl)ccc3oc2=O)cc1
  105.7	78.9	92.2	-80.0
27) O=C(NCCC1=CCCCC1)C1CCN(C(=O)Cc2ccccc2)CC1
  107.1	99.4	102.8	13.9
28) CC1(C23CC4CC(CC(C4)C2)C3)CC(=O)O1 (configuration not stated)
  99.3	88.2	101.7	-16.8
29) CC(=O)Nc1nc(N)n(-c2ccccc2)n1
  96.2	86.2	88.3	-0.2
30) O=C(NN1C(=O)/C(=C2/C(=O)N(Cc3ccccc3Cl)c3ccccc32)SC1=S)c1ccncc1
  102.9	nt	nt	-11.1

# Shown in transposed form: 3 of the compounds above.
[28] CC1(C23CC4CC(CC(C4)C2)C3)CC(=O)O1 (configuration not stated)
[29] CC(=O)Nc1nc(N)n(-c2ccccc2)n1
[30] O=C(NN1C(=O)/C(=C2/C(=O)N(Cc3ccccc3Cl)c3ccccc32)SC1=S)c1ccncc1

assay / entry,28,29,30
GIV-Gai inh,99.3,96.2,102.9
Sa growth inh second temp,88.2,86.2,nt
Sa growth inh,101.7,88.3,nt
HCMV NEC inh,-16.8,-0.2,-11.1

# Shown bar-delimited: entries from further up.
nr | SMILES | GIV-Gai inh | Sa growth inh second temp | Sa growth inh | HCMV NEC inh
26 | Cc1ccc(C(=O)Nc2cc3cc(Cl)ccc3oc2=O)cc1 | 105.7 | 78.9 | 92.2 | -80.0
27 | O=C(NCCC1=CCCCC1)C1CCN(C(=O)Cc2ccccc2)CC1 | 107.1 | 99.4 | 102.8 | 13.9
28 | CC1(C23CC4CC(CC(C4)C2)C3)CC(=O)O1 (configuration not stated) | 99.3 | 88.2 | 101.7 | -16.8

# Remaining list, next part:
# Order of values: GIV-Gai inh	Sa growth inh second temp	Sa growth inh	HCMV NEC inh
31) CC(C)COc1ccc(C(=O)N2CCC(c3nc4ccccc4s3)CC2)cc1
  100.8	83.5	97.2	-23.6
32) O=C(N/N=C1\CC(=O)c2ccccc21)c1ccc2c(c1)OCO2
  nt	20.6	45.9	-46.1
33) O=c1cc(CN2CCc3ccccc32)occ1OCc1ccc(Cl)cc1
  106.2	73.8	98.3	-14.3
34) O=C(CSc1ccc2ccccc2c1)NCCCN1CCCC1=O
  nt	89.8	109.0	-33.4
35) CCCc1cc(C(=O)Nc2cccc(Cl)c2)no1
  100.9	74.0	111.4	-1.2
36) CSc1nc(/N=C/N(C)C)n2nc(C)cc2n1
  106.1	92.7	89.7	-28.5
37) Cc1[nH]c(C(=O)N2CCC(CC(=O)NCCc3c[nH]c4ccccc34)CC2)c(C)c1C
  101.9	nt	nt	2.2
38) CC(C)(C)C(=O)Nc1ccc(N2CCn3c(nc4cc(Cl)ccc43)C2)cc1
  102.8	nt	nt	3.3
39) COc1ccc(CNc2nc(SCc3ccccc3Cl)nc3ccccc23)cc1
  101.5	86.4	85.3	nt
40) Fc1ccc(Nc2ncnc3onc(-c4cccc(Cl)c4)c23)c(F)c1
  100.5	90.5	96.6	-17.5
41) COC(=O)C1CCN(S(=O)(=O)c2ccc(OC)cc2)CC1
  98.2	91.6	111.7	-7.3
42) COc1ccc(N(C)S(=O)(=O)c2ccc3c(c2)oc(=O)n3C)cc1
  112.8	92.0	92.1	nt
43) CCOC(=O)c1c(NC(=O)c2cc(-c3ccc(Cl)cc3)on2)sc(C)c1C
  104.4	98.2	104.5	1.9
44) O=C(Nc1ccc(S(=O)(=O)N2CCCCC2)cc1)C1CCCCC1
  105.6	90.5	104.4	-25.0
45) C=CCSc1nc2nc[nH]c2c(=O)[nH]1
  98.2	nt	nt	6.4
46) COc1cccc(C(=O)N2CCN(Cc3nc(-c4ccc(C)cc4)oc3C)CC2)c1
  100.3	nt	nt	-15.2
47) CCC(CC)C(=O)Nc1ccc(S(=O)(=O)N2CCC(c3nc4ccccc4s3)CC2)cc1
  98.3&102.7	88.2	102.8	-11.4&10.1
48) CCCn1c(=O)n(C)c(=O)c2c(SCC(=O)O)nc(CC(C)C)nc21
  nt	68.0	91.5	7.3
49) COc1cc(OC)c(NC(=O)C2=C(C)C(=O)OC23CCCCCC3)cc1Cl
  101.9	101.8	107.8	nt
50) COc1ccc(CCNS(=O)(=O)c2ccc3c(c2)c(=O)n(C)c(=O)n3C)cc1OC
  99.4	87.5	90.8	-8.8
51) NCCOc1ccccc1
  nt	96.7	93.6	-5.4
52) CCN1CCc2c(sc(-n3cccc3)c2CNC(=O)Nc2cccc(F)c2)C1
  121.4	nt	nt	-32.3
53) O=C(CCCn1c(=O)[nH]c2cc(Cl)ccc2c1=O)NCCN1CCN(c2ccccc2)CC1
  102.7	82.5	97.3	-1.4
54) O=C(Nc1cccc(OCc2cc(=O)n3ccccc3n2)c1)c1ccccc1Br
  104.4	90.9	82.0	nt
55) COc1ccc(-c2noc(CN(C3CCCCC3)S(=O)(=O)c3ccc(F)cc3)n2)cc1
  98.9	89.2	106.2	-3.8
56) CC(C)Oc1ccc(CN2C(=O)c3oc4ccccc4c3OCC2(C)C(=O)NC2CCCC2)cc1 (configuration not stated)
  111.4	nt	nt	-13.3
57) Cc1ccc(C2C3CCCC=C3C(C#N)C(N)C2(C#N)C#N)s1 (configuration not stated)
  nt	70.4	85.8	-26.8
58) Cc1ccc(S(=O)(=O)N(CC(=O)N2CCCCC2)C2CCCCC2)cc1
  102.1	86.8	100.1	nt
59) COc1ccc(CNC(=O)COC(=O)CC2CCCC2)cc1
  nt	83.4	115.8	-35.7
60) CC1CN(CCC(=O)Nc2ccc3c(c2)OCO3)CC(C)O1 (configuration not stated)
  104.4	99.5	120.2	-29.9
61) CCOC(=O)c1cn[nH]c1S(=O)(=O)N1CCN(CC)CC1
  95.3	nt	nt	0.8
62) CCN(CC)S(=O)(=O)c1ccc2c(c1)nc(CCC(=O)OCC(N)=O)n2C
  nt	93.1	108.0	-16.9
63) O=C(CSc1ccccc1)NCc1ccc2c(c1)OCO2
  105.6	87.1	96.9	-12.6
64) Cc1ccc2[nH]cc(CCNC(=O)CCc3nnc(C(=O)Nc4ccccc4)s3)c2c1
  97.4	nt	nt	-9.3
65) O=C1CCCN2N=C(SCC(=O)Nc3cccc4ccccc34)SC2=N1
  101.4	77.7	99.4	-18.8
66) CSc1ccc(CCNC(=O)Cn2ncn3c(cc4ccccc43)c2=O)cc1
  104.4	85.9	116.3	-15.3
67) O=S(=O)(NCCn1c(-c2ccc(F)cc2)nc2cccnc21)c1ccc(C2CCCCC2)cc1
  106.5	nt	nt	-17.6
68) CCOC(=O)C1CCN(C(=O)CSc2ccc3ccccc3c2)CC1
  nt	97.3	68.9	-19.9
69) CCc1ccc(N2CCn3c2nc2c3c(=O)n(CCCc3ccccc3)c(=O)n2C)cc1
  105.8	92.5	99.6	nt
70) CC(C)C(=O)Nc1cccc(C(=O)Nc2ccccc2)c1
  98.0	100.7	102.1	4.4
71) O=C(C1=NN(c2ccccc2)C(=O)CC1)N1CCN(Cc2ccc3c(c2)OCO3)CC1
  nt	91.8	113.2	-7.9
72) COc1ccc(C2C3=C(CC(C)(C)CC3=O)OC3=C2C(=O)CC(C)(C)C3)cc1CN1CCOCC1
  107.9	nt	nt	6.5
73) COC(=O)Nc1nc2ccc(-c3n[nH]c(=O)c4ccccc34)cc2[nH]1
  101.6	88.1	95.8	-15.4
74) CCOC(=O)c1cc(C)n(CC(=O)O)c1C
  nt	93.3	80.0	-15.4
75) COc1ccc(CN2C(=O)C3(OCCCO3)c3ccccc32)cc1
  97.6	101.8	87.2	-13.4
76) O=C(NC1CCCC1)c1noc2c1CCCCC2
  99.4	95.2	86.2	-13.6
77) C#CCSc1nc2ccccc2c(=O)[nH]1
  101.1	85.7	100.5	-32.0
78) CCCS(=O)(=O)c1nc(S(=O)(=O)c2ccc(C)cc2)c(NC)s1
  103.0	88.5	94.0	-7.4
79) COC(=O)c1c(-c2cccs2)csc1NC(=O)COc1c(C)ccc(C)c1C
  101.2	83.8	98.3	-37.0
80) Oc1c(Cl)cc(Cl)cc1Sc1cc(Cl)cc(Cl)c1O
  nt	0.1*	-0.6*	42.2
81) CC(C)N(CCCNC(=O)Cn1ncc2c([nH]c3ccccc32)c1=O)Cc1ccccc1
  101.0	97.7	116.6	nt
82) COc1ccccc1Nc1nc2nonc2nc1N1CCC(C)CC1
  108.4&96.8	nt	nt	4.7
83) Cc1cc(C)n2nc(C(=O)OCC(=O)NC3CCCCC3)nc2n1
  nt	98.7	108.8	18.8
84) CC(=O)Nc1ccc(NC(=O)CSc2nc3ccccc3nc2N2CCCCC2)cc1
  104.0	87.6	94.6	-16.4
85) COC(=O)c1c(C)[nH]c(C)c1-c1ccon1
  103.9	97.5	111.3	-4.2
86) CC(=O)NCCC(=O)Nc1nc(SCc2ccc(Cl)cc2)n[nH]1
  nt	95.8	77.8	-36.6
87) Cc1c(C(=O)N(Cc2ccc(N(C)C)cc2)CC2CCCO2)oc2ccc(Br)cc12 (configuration not stated)
  105.5&106.1	88.2	100.3	-16.3&1.6

# By substructure: those above with two or more sulfur atoms
# Order of values: GIV-Gai inh	Sa growth inh second temp	Sa growth inh	HCMV NEC inh
20) C/C(=N\NC(=O)c1ccccc1NS(=O)(=O)c1cccs1)c1ccco1
  nt	74.3	101.8	-15.9
30) O=C(NN1C(=O)/C(=C2/C(=O)N(Cc3ccccc3Cl)c3ccccc32)SC1=S)c1ccncc1
  102.9	nt	nt	-11.1
47) CCC(CC)C(=O)Nc1ccc(S(=O)(=O)N2CCC(c3nc4ccccc4s3)CC2)cc1
  98.3&102.7	88.2	102.8	-11.4&10.1
65) O=C1CCCN2N=C(SCC(=O)Nc3cccc4ccccc34)SC2=N1
  101.4	77.7	99.4	-18.8
78) CCCS(=O)(=O)c1nc(S(=O)(=O)c2ccc(C)cc2)c(NC)s1
  103.0	88.5	94.0	-7.4
79) COC(=O)c1c(-c2cccs2)csc1NC(=O)COc1c(C)ccc(C)c1C
  101.2	83.8	98.3	-37.0

# Bioassay records (PubChem)
